VDR inhibitor: blocks the human vitamin D receptor | P11473 | VDR-SRC2-3 peptide fluorescence polarization, 2 h | Potency, µM, for inactives: max response, negative = inhibition, usual class: inhibitors | 400,000 tested, 0.93% active; active = well fitted inhibition curve with a large enough effect; inconclusive = small, poorly fitted or top-dose-only effect, or another doubt; inactive = no such curve, though single readings can be large or run the other way; note: series mostly up to about 120 µM
Target sequence (P11473 whole entry, looked up): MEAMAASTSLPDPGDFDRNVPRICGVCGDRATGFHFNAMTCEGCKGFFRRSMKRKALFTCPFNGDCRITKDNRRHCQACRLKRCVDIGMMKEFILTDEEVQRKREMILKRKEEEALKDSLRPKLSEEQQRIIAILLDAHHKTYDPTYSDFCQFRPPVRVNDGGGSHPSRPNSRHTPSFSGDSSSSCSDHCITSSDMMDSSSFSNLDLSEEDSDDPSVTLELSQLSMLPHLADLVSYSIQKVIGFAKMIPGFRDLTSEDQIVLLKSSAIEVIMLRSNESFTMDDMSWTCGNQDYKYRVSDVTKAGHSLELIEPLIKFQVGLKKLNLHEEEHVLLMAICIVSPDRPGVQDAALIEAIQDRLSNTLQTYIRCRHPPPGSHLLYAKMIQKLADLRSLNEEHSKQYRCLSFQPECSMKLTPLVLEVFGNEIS
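The screen uses fluorescence polarization to detect compounds that interfere with recruitment of the SRC2-3 coactivator peptide to VDR; plates are read after 2 h at room temperature.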
* marks the source's active call; other numbers are inactive results; u = inconclusive; & = joins results of further samples. % is set by controls: 0 for no effect and ±100 for the full control effect; potency is the fitted concentration of half-maximal effect.

structure	VDR inhibitor
CCOC(=O)N1CCC(Nc2c(NCCCN3CCN(CC)CC3)c(=O)c2=O)CC1	-19.7%
CSCCC(NC(C)=O)C(=O)OCC(=O)N(c1ccccc1)c1ccccc1 (centres undefined)	8.5%
O=C(O)C(Cc1c[nH]c2ccccc12)N1C(=O)C2C3c4ccccc4C(c4ccccc43)[C@@H]2C1=O (some centres undefined)	-1.5%
CC(C)CCNC(=O)CCCc1ccccc1	23.0%
CCOc1ccc(C2CC(=O)N(Nc3ccc([N+](=O)[O-])cc3[N+](=O)[O-])C2=O)cc1 (centres undefined)	-4.0%
C=Cc1ccc(Cn2c(=O)n(C)c(=O)c3sccc32)cc1	-26.9%
CCCCN1C(N)=NC[C@@H]1c1ccccc1	-12.2%
CC(Sc1nnc(-c2cccnc2)o1)C(=O)NC1CCCCC1 (centres undefined)	12.0%

(cont.)
structure	VDR inhibitor
COc1ccc(-c2nc(CN3CCC(C(=O)NCCCN4CCN(c5ccccc5F)CC4)CC3)c(C)o2)cc1OC	3.1%
COc1ccc(CC(=O)Nc2ccc3c(c2)CCC3)cc1S(=O)(=O)N1CCOCC1	-3.2%
O=C(OCc1cccc2ccccc12)c1ccc2c(=O)[nH]c(CN3CCOCC3)nc2c1	5.7%
COC(=O)CN1C(=O)[C@H]2[C@@H](c3ccc(C)o3)N3C(=O)CN(Cc4ccccc4)C(=O)[C@@]3(Cc3ccccc3)[C@H]2C1=O	-21.9%
Cc1ccc(C)c(C(=O)COC(=O)c2cc([N+](=O)[O-])ccc2N2CCOCC2)c1	-11.0%
Cc1ccc(NC(=O)COC(=O)CCc2c(C)nc3nc(N)nn3c2C)cc1C	-26.1%
Oc1c(CN2CCCC(C(F)(F)F)C2)cc(Cl)c2ccccc12 (centres undefined)	u
COc1cccc(C2CC(c3cccs3)=NN2C(=O)CSC2=NN3CCCC(=O)N=C3S2)c1OC (centres undefined)	-8.8%

More entries:
structure	VDR inhibitor
O=C(Nc1ccc(CN2CCCCC2)cc1)c1cccc(F)c1	0.6%
Cc1c(NS(=O)(=O)c2ccc(Br)cc2)c(=O)n(-c2ccccc2)n1C	-12.0%
Cc1cc(C)n(-c2nncn2NC(=O)c2ccc(Cl)cc2O)n1	6.5%
Fc1ccc(Oc2ncccn2)c(F)c1	0.3%
CCOc1ccc(CN2CCN(CC(O)Cn3c4ccccc4c4ccccc43)CC2)cc1 (centres undefined)	-11.8%
COc1ccccc1Nc1ncccc1C(=O)NCc1ccccc1	8.7%
O=C(OCCN=C1NS(=O)(=O)c2ccccc21)c1ccccc1F	-6.7%
Cc1cccc(NC(=O)Cn2nc(N3CCN(c4ccccc4)CC3)ccc2=O)c1C	11.8%

Continuation.
structure	VDR inhibitor
CSc1ncc(C(=O)N2CCN(c3ccc(Cl)cc3)CC2)c(C)n1	2.4%
Cc1ccc(S(=O)(=O)N2CCC(C(=O)OCC(=O)N3CCCCC3C)CC2)cc1C (centres undefined)	-3.6%
CC(C)CC1(C(=O)NCc2ccccn2)C=CCN1C(=O)c1ccccc1 (centres undefined)	14.1%
CS(=O)(=O)N1CCC(C(=O)NCCN2CCN(Cc3ccccc3)CC2)CC1	1.3%
O=C(NCCCCNC(=O)c1ccccn1)c1ccccn1	6.9%
O=C(CSc1ccsc1[N+](=O)[O-])N1CCCCC1	-3.3%
CCOC(=O)C1CCCN(C(=O)c2cc3c(=O)n4ccccc4nc3s2)C1 (centres undefined)	-8.0%
CC1(C)CC(=O)c2cnc(NC(=O)c3ccco3)nc2C1	-5.3%

Further compounds follow:
structure	VDR inhibitor
Cc1ccc(NC(=O)CN(C)CC(=O)Nc2ccccc2C(=O)Nc2ccccc2)cc1	8.9%
COC(=O)C(C(=O)OC)c1ccccc1[N+](=O)[O-]	2.3%&0.9%
O=C(C1CCCN(c2ncnc3c2nc2n3CCCCC2)C1)N1CCN(c2ccc(F)cc2)CC1 (centres undefined)	-8.7%
COc1cccc(C(=O)NC(=S)Nc2ccc(Cl)c(C(=O)O)c2)c1	-1.3%
CCC(=O)Nc1ccc(-c2cc(-c3ccccc3)nc(-c3ccc(NC(=O)CC)cc3)n2)cc1	11.6%
CCCS(=O)(=O)c1c(S(=O)(=O)CCC)c2c(N)cccn2c1C(=O)c1ccc(OC)cc1	-10.3%
CCOc1ccc(CCNC(=O)c2cn(C)c3ccc(S(=O)(=O)N4CCCCCC4)cc3c2=O)cc1OCC	-7.5%
COc1ccccc1-c1nn2c(=O)cc(C)nc2s1	-9.4%

4 structures from above, arranged by length of the SMILES, falling:
structure	VDR inhibitor
CCCS(=O)(=O)c1c(S(=O)(=O)CCC)c2c(N)cccn2c1C(=O)c1ccc(OC)cc1	-10.3%
COc1cccc(C(=O)NC(=S)Nc2ccc(Cl)c(C(=O)O)c2)c1	-1.3%
COC(=O)C(C(=O)OC)c1ccccc1[N+](=O)[O-]	2.3%&0.9%
COc1ccccc1-c1nn2c(=O)cc(C)nc2s1	-9.4%

(list continues)
structure	VDR inhibitor
CCOC(=O)CNC(=O)Nc1nnc(-c2ccc(OCC)cc2)o1	5.2%
Cc1ccc(CN2CCSc3ccc(C(=O)NCCc4ccccc4)cc32)cc1	-23.0%
S=c1[nH]ncn1/N=C/c1cccs1	-7.9%
CC(C)[C@H](NC(=O)OCc1ccccc1)C(=O)OCC(=O)N1C(C)CCCC1C (some centres undefined)	-3.0%
COc1ccc(-c2cc(C(=O)N(C)Cc3ccccc3F)c3ccccc3n2)cc1OC	3.2%
Clc1ccc(Br)cc1-c1nc(-c2ccncc2)no1	-11.7%
O=C(COC(=O)/C=C/c1cccc(Br)c1)NCCc1ccccc1	1.2%
CCC1(C)Cc2ccccc2/C(=C/C(=O)N2CCCCC2)N1 (centres undefined)	-1.4%

Next section:
structure	VDR inhibitor
O=C1c2cccc3cccc(c23)C(=O)N1CCCN1CCN(c2ccc(F)cc2)CC1	-5.8%
CC(Oc1ccc(-c2ccccc2)cc1)C(=O)N/N=C/c1cccnc1 (centres undefined)	22.4%
Cc1cccc(NC(=O)N2CCC(CN3CCc4ccccc4C3)CC2)c1C	2.7%
CCC(CNc1cc(OC)cc2cccnc12)NC1CCCCC1 (centres undefined)	-7.0%
C/C(=N\Nc1nc(C)cc(-c2ccccc2)n1)c1ccc(C)o1	12.3%
CC(C)CCNC(=O)c1ccc2c(c1)NC(=O)C(CS(=O)(=O)Cc1cccc(Br)c1)N2 (centres undefined)	8.2%
COc1ccc(CN2CCNC(=O)C2CC(=O)NC2CCCC2)c(OC)c1 (centres undefined)	13.9%
COc1ccc(OC(=O)c2ccc(Cl)cc2)c(C(C)=O)c1	0.5%

The list goes on:
structure	VDR inhibitor
O=C(CSc1nnc(-c2ccccc2Cl)o1)N1CCOCC1	-10.8%
O=C(/C=C/c1ccccc1)NNc1ccc(Cl)cc1	-14.7%
CCn1c(SCC(=O)NC2CCCC2)nc2c1c(=O)n(C)c(=O)n2C	-8.1%
CCCCC(=O)Nc1cccc(C(=O)Nc2ccccc2C(=O)O)c1	-13.4%
CC(C)CN(C(=O)CCNC(=O)c1ccccc1Cl)C1CCS(=O)(=O)C1 (centres undefined)	6.3%
COc1ccc(C)cc1NCc1ccc(OC)c(C)c1OC	4.5%
CC1(C)Cc2c(sc3c2C(=O)N(c2ccccc2)C2=NCCN23)CS1	11.6%
Cn1nc(C(=O)NC2=NCCS2)ccc1=O	13.7%

Further entries:
structure	VDR inhibitor
CCn1ccc2cc(S(=O)(=O)N3CCC(C(=O)NCCc4ccc(C)cc4)CC3)ccc21	3.1%
COC(CN(C)C(=O)C1CCC(CNS(=O)(=O)c2ccc(C)cc2)CC1)OC (centres undefined)	-13.4%
COc1ccc(Br)cc1CN(C)C(=O)CNC(=O)c1ccc2ccccc2c1	-7.8%
CN(Cc1ccccc1)CC(O)COc1ccc(CNCc2cccnc2)cc1 (centres undefined)	-12.1%
CCN(CC)C(=O)COc1ccc(-c2nnc(Nc3ccc(OC)c(C(=O)NC)c3)c3ccccc23)cc1	-7.8%&5.8%
Oc1ccc(/C=N/N2CCCCC2)cc1O	-4.2%
Cc1ccc(C(=O)CSc2ccc(-c3ccccc3)nn2)cc1	-1.3%
CCNc1ncc2nc(C)c(=O)n(C)c2n1	4.9%

Going on with the list.
structure	VDR inhibitor
CC1(C)Cc2c(cnn2-c2cccc(F)c2)C(NC(=O)c2cc[n+]([O-])cc2)C1 (centres undefined)	-13.1%
COc1ccc(Cn2c(C(F)(F)F)ccc(C(N)=O)c2=O)cc1	2.7%
CCOc1ccc(CCNC(=O)CN2C(=O)COc3ccc(S(=O)(=O)N4CCC(C)CC4)cc32)cc1	-13.9%
COc1ccc(C2CCCCCN2C(=O)C2CCN(S(=O)(=O)c3cccc(C(C)=O)c3)CC2)cc1 (centres undefined)	-4.7%
Cc1cc(C)cc(Oc2nc(-c3ccccc3)cc(C)c2S(C)(=O)=O)c1	23.1%
CN1CCC(=O)N([C@H](CO)c2ccccc2)CC1	-20.8%
COc1ccc(/C=N/n2cnc3c([nH]c4ccccc43)c2=O)cc1CO	u
CCOc1cccc2sc(N(CCN(C)C)C(=O)c3ccc4ccccc4c3)nc12	18.5%

Carrying on:
structure	VDR inhibitor
O=C(c1cc(-c2ccncc2)nc2ccccc12)N1CCN(Cc2ccccc2)CC1	-8.7%
O=S(=O)(c1ccccc1)c1nc(-c2ccc(F)cc2)oc1NCc1ccccc1	-25.1%
O=C(NNC1=NS(=O)(=O)c2ccccc21)C1CC(=O)N(c2ccccc2)C1 (centres undefined)	-2.6%
CCc1c(C)sc(NC(=S)Nc2cccnc2)c1C(=O)OC	-12.1%
Cn1nnc(C(O)CNCc2cccs2)n1 (centres undefined)	-12.7%
Cc1cccc(NC(=O)CNC(=O)c2ccccc2Cl)n1	-1.4%
Cn1c(=O)[nH]c(=O)c2c1nc(Br)n2CC(O)COc1ccc(Cl)cc1 (centres undefined)	9.2%
Cc1cc(NS(=O)(=O)N(C)C)ccc1C(C)C	0.9%

More entries:
structure	VDR inhibitor
Cc1ccc(C(=O)O/N=C2\CCCc3ccccc32)cc1	9.8%
O=C(NNC(=O)c1sc2cccc(Cl)c2c1Cl)Nc1ccccc1	-14.7%
Cc1ccc(S(=O)(=O)N2CCCCC2)cc1NC(=O)C1CC(=O)N(c2ccc3c(c2)OCCO3)C1 (centres undefined)	14.3%
O=C(NCc1ccccc1)C(=O)NCC(c1cccs1)S(=O)(=O)c1cccs1 (centres undefined)	3.9%
CCOc1ccc(N2C(=O)CN=C2Nc2ccccc2F)cc1	-19.1%
O=C(Nc1cccc(C(F)(F)F)c1)c1cc(Br)cc2c1OCC2	-7.4%
CCOC(=O)C1CCCN(C(=O)c2nn(-c3ccc(OC)cc3)c(=O)c3c2c2ccccc2n3C)C1 (centres undefined)	-15.9%
CC(=O)c1ccc(S(=O)(=O)N2CCNCC2)cc1	u

(continued)
structure	VDR inhibitor
O=C(CCC(=O)OCc1ccc([N+](=O)[O-])cc1Cl)Nc1ccccc1	-6.4%
CCN(C(=O)c1cn(-c2cccc(OC)c2)c(=O)c2ccccc12)c1ccccc1C	3.9%
O=C(CNC(=O)OCc1ccccc1)NC1(C(=O)O)CCCC1	-8.5%
CC(C)(C)OC(=O)C[C@H]1C/C=C\C[C@H](CC(=O)N(CCO)Cc2ccccc2)C(=O)N[C@@H](Cc2ccccc2)COC1=O	8.6%
Cc1ccc(Oc2nnc(-c3cccs3)c3ccccc23)cc1C	-17.7%
CCN1CCN(S(=O)(=O)c2ccc(-c3cc(C)no3)s2)CC1	-13.1%
N#Cc1c(N)n(-c2ccccc2)c(=O)c2cc([N+](=O)[O-])ccc12	44.7µM*
COc1cccc(/C=C/C(=O)OCC(=O)NCCCc2ccccc2)c1OC	-2.8%

Remaining list, next part:
structure	VDR inhibitor
CC(Oc1ccccc1)C(=O)NC1C(=O)N2C(C(=O)O)C(C)(C)S[C@@H]12 (some centres undefined)	8.8%
C#CCOCCOCCOCCNc1nc(N2CCN(C(=O)CCCCCCCCCCNC(=O)[C@H](CCC(=O)O)n3cc(CCCCCN)nn3)CC2)nc(N2CCN(C(=O)CCCCCCCCCCNC(=O)[C@@H]([C@H](C)O)n3cc(C)nn3)CC2)n1	-27.8%
COc1ccc(NC(=S)NCCN2CCC(C)CC2)cc1	12.9%
COc1cc(C(=O)NCc2ccc(S(N)(=O)=O)cc2)ccc1OCC(=O)N1CCOCC1	1.2%
CCn1cc2nc(SCc3ccccc3Cl)n(Cc3ccc(OC)cc3)c(=O)c2n1	3.7%
CCOC(=O)C1CCCN(C(=S)NC(=O)/C=C/c2ccc(F)cc2)C1 (centres undefined)	-3.5%
Cc1ccccc1-n1c(C)cc(/C=N/NC(=O)c2ccc(CN3CCOCC3)cc2)c1C	-0.1%
CCOc1ccc(OCc2ccc(C(=O)N3N=C(C(F)F)CC3(O)C(F)F)o2)cc1 (centres undefined)	13.7%
CCC(=O)c1ccc(OCC(=O)OCC(=O)Nc2ccc(C)c(S(=O)(=O)N3CCCCC3)c2)cc1	8.9%

In the list so far, these contain a nitro group on carbon.
structure	VDR inhibitor
CCOc1ccc(C2CC(=O)N(Nc3ccc([N+](=O)[O-])cc3[N+](=O)[O-])C2=O)cc1 (centres undefined)	-4.0%
Cc1ccc(C)c(C(=O)COC(=O)c2cc([N+](=O)[O-])ccc2N2CCOCC2)c1	-11.0%
O=C(CSc1ccsc1[N+](=O)[O-])N1CCCCC1	-3.3%
COC(=O)C(C(=O)OC)c1ccccc1[N+](=O)[O-]	2.3%&0.9%
O=C(CCC(=O)OCc1ccc([N+](=O)[O-])cc1Cl)Nc1ccccc1	-6.4%
N#Cc1c(N)n(-c2ccccc2)c(=O)c2cc([N+](=O)[O-])ccc12	44.7µM*

Screening data (PubChem)

A portion of the library, so the mix of outcomes need not match the whole.
